High-throughput results (PubChem)
Vaccinia pol inh – vaccinia E9 polymerase processive synthesis inhibition. AID 493162. actives 0.94% (n = 46,000). normalized absorbance, % (concentration not given with the values). in vitro processive DNA synthesis, absorbance read-out; stronger effect = lower value; some inactives read as strong as hits;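 active means replicate mean up to 90% and picked by the depositor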;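 further: 100% = median of the test wells of a plate; 100 nL library stock went into each well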
Starred values were filed as active, the others as inactive. This is a subset; rates above refer to the full screens.

SMILES	Vaccinia pol inh
CCCNC(=O)N(C)Cc1ccccc1	101
Cc1ccc(SCC(C)CNC(=O)Nc2ccccc2)cc1 (stereo not drawn)	96
N#Cc1ccsc1NC(=O)c1coc2ccccc2c1=O	107
CC(C)(C)c1ccc(N=Cc2ccccn2)cc1	108
COc1ccc(C2N=C(N3CCc4ccccc43)SC(N)=C2C#N)cc1 (stereo not drawn)	102
FC(F)(F)c1cccc(C2NCCc3[nH]cnc32)c1 (stereo not drawn)	129
CC(C)CCNC(=O)c1ccc2c(=O)n(Cc3ccc(Cl)cc3)c(=S)[nH]c2c1	104
CC(C)(C)OC(=O)C[n+]1ccc(C(N)=O)cc1	101
NC(=O)N/N=C/c1ccc([N+](=O)[O-])o1	99
O=S1(=O)CCC(N2CCOCC2)C1 (stereo not drawn)	100
CCN1CCN(C(=O)Cc2c(C(=O)O)[nH]c3ccccc23)CC1	103
Cc1ccccc1-c1nnc(N)s1	97
O=S(=O)(c1cccs1)N1CCN(c2ccccc2F)CC1	105
O=C(c1ccc2c(c1)OCCCO2)c1ccc2ccccc2c1	95
CC1=C(C)CC(C(=O)Nc2ccc(-n3cnnn3)c(C)c2)C(C(=O)O)C1 (stereo not drawn)	96
Cc1ccc(N2C(=O)NC(=O)/C(=C\c3ccccc3)C2=O)cc1	100
CC(C)(O)[C@@H]1[C@H]2OC(=O)[C@@H]1[C@]1(O)C[C@H]3O[C@]34C(=O)O[C@H]2[C@]14C	100
COc1ccc(N2CCN(CC(O)COc3ccc(-c4ccccc4)cc3)CC2)cc1 (stereo not drawn)	94
Cc1ccc(C(=O)OCc2ccc(C#N)cc2)s1	104
CC(C)(C)OC(=O)N1CCC(c2nc(-c3ccc(Cl)s3)cs2)CC1	105
CN1CCC(N(C)C(=O)c2cc3c(s2)CCCC3)CC1	106
CCOC(=O)COc1ccc(=O)n(-c2ccccc2)n1	96
COc1ccc(NC(=O)Cc2cccc3ccccc23)cc1	100
O=C1NC(=S)NC(=O)C1c1ccccc1	101
O=C(NCCC1=CCCCC1)c1cc2c(=O)[nH]c3ccccc3c2s1	79
Further structures
SMILES	Vaccinia pol inh
c1ccc(CNCC2CCCO2)cc1 (stereo not drawn)	114
Oc1c(CN2CCCC2)cc(Cl)c2cccnc12	98
CCOC(=O)c1c(-c2ccccc2)oc2ccc(OC(=O)CC)cc12	97
CC1(C)OC(=O)C(C2C3CC4CC(C3)CC2C4)C(=O)O1 (stereo not drawn)	81
CCN(CC)c1nc(-c2ccccc2F)nc2ccccc12	106
CCOc1ccc2nc(SCc3ccc4c(c3)OCO4)sc2c1	100
CC(=O)Nc1ccc(-c2nnc3n2CCCCC3)cc1	98
CC(=O)Nc1ccc(S(=O)(=O)Nc2ccc([N+](=O)[O-])cc2)cc1	101
Oc1ccc2ccccc2c1C=NCc1cccnc1	93
CCc1ccc(/C=C2\SC(=S)N(CCC(=O)N3CCCc4ccccc43)C2=O)cc1	101
O=C1C=C(NCc2ccccc2)CCC1	107
COC(=O)c1ccc(N(Cc2ccccc2)S(=O)(=O)c2ccccc2)cc1	100
C=CCNC(=O)c1cc(-c2ccc(OC)cc2)on1	100
CCc1cc(C(=O)Cc2ccc3ccccc3n2)c(O)cc1OC	106
CCOc1ccc(-n2ccnc2SCC(=O)NCCc2ccccc2)cc1	98
N#CC1=C(SCC(=O)Nc2ccc(Br)cc2)NC(=O)CC1c1ccccc1 (stereo not drawn)	91
CN(CCC(=O)Nc1ccc2c(c1)OCO2)Cc1ccccc1	100
COc1ccccc1CC(=O)NC1CCCC1	99
CCN1/C(=C2\C(=O)N(C)C(=S)N2c2ccccc2)C=Cc2ccccc21	101
Cc1ccc(NC(=O)c2ccco2)cc1Cl	101
CC(=O)Nc1cc(C(C)C)c(C(C)C)cc1C(C)C	99
O=C(O)CSCc1cn2ccccc2n1	108
Cc1cc(C(=O)N2CCN(C3c4ccccc4-c4ccccc43)CC2)no1	99
CN(C(=O)COC(=O)C1(c2ccccc2F)CCCC1)c1ccccc1	91
CC(=O)N1CCN2C(=O)C1CCCC(=O)c1cc(C3CCCCC3)ccc12 (stereo not drawn)	100

A second format for some results above.
CCOc1ccc(-n2ccnc2SCC(=O)NCCc2ccccc2)cc1
  Vaccinia pol inh: 98
N#CC1=C(SCC(=O)Nc2ccc(Br)cc2)NC(=O)CC1c1ccccc1 (stereo not drawn)
  Vaccinia pol inh: 91
CN(CCC(=O)Nc1ccc2c(c1)OCO2)Cc1ccccc1
  Vaccinia pol inh: 100
COc1ccccc1CC(=O)NC1CCCC1
  Vaccinia pol inh: 99

(listing goes on)
SMILES	Vaccinia pol inh
O=C(/C=C/c1ccc(Cl)cc1)OCC(=O)N1CCCCC1	106
CC1(C)CC(=O)C=C(Nc2ccc(C(=O)O)cc2)C1	100
COc1cc(/C=C2\SC(=S)NC2=O)ccc1OCc1cccc2ccccc12	100
CCCCc1nc2ccccc2c(N)c1CC (tested in a mixture with another compound)	100
Oc1ccc(Br)cc1-c1nc2ccccc2s1	107
O=C(NC1CCCCC1)C1c2ccccc2C(=O)N2CCc3ccccc3C12 (stereo not drawn)	100
O=C(NC1CC2CCC1C2)c1ccc(CN2CCOCC2)cc1 (stereo not drawn)	101
N#C/C(=C\c1ccccc1Cl)S(=O)(=O)c1ccc(Cl)cc1	100
CN(C(=O)c1nc2ncccn2n1)c1ccc(OC(F)(F)F)cc1	100
c1ccc(COn2nnc3ccccc32)c(COn2nnc3ccccc32)c1	100
Cc1cc(C(=O)OCC(=O)N2CCc3ccccc3C2)c(C)o1	103
Cc1cc(C)nc(SCC(=O)c2c(N)no[n+]2[O-])n1	100
Cc1noc(COc2ccccc2OCC(N)=O)n1	101
COc1ccc(S(=O)(=O)N2Cc3ccccc3CC2C(=O)N2CCCCC2)cc1 (stereo not drawn)	100
Cc1ccccc1-c1nc(NC(=O)CSc2ncnc3sc4c(c23)CCC(C)C4)ns1 (stereo not drawn)	99
CC1CCCCN1C(=O)CCS(=O)(=O)c1cccc2nonc12 (stereo not drawn)	94
CCc1ccc(S(=O)(=O)c2c(C(=O)c3ccccc3)cnc3cc4c(cc23)OCCO4)cc1	96
N=C(N)SCc1cn2ccccc2n1	103
Cc1oc2c(c1C(=O)NCc1ccccc1)C(=O)c1ccccc1C2=O	108
CC(Cn1c(C(C)C)nc2ccccc21)C(=O)O (stereo not drawn)	95
COc1ccc2cc(C(=O)OC(C)C)sc(=O)c2c1OC	115
CCOC(=O)CSc1nc(N)c2c3c(sc2n1)CCC3	96
COC(=O)c1c2c(nc3ccccc13)CCCC2	86
CSc1cccc(NC(=S)NC(C)(C)C)c1	81
COc1cc2c(cc1OC)C(c1ccccc1)CC(=O)N2 (stereo not drawn)	85
(list continues)
SMILES	Vaccinia pol inh
COc1ccc(NC(=O)c2csc3c2CCCC3)cc1	89
Cc1cc2c(c(=O)n1CCN1CCOCC1)C(c1cccc(F)c1)C(C#N)=C(N)O2 (stereo not drawn)	99
CC(C)(C)C(=O)NCc1nc2ccccc2[nH]1	94
CCN(C(=O)c1c(Oc2ccc(F)cc2)nc(C)c(Cl)c1C)c1ccccc1	99
Cc1c(CCC(=O)NCc2ccccc2)c(=O)oc2cc(O)ccc12	95
N#Cc1cnc2c(-c3ccccc3)c(COc3ccccc3)nn2c1N	99
FC(F)(F)c1cc(Br)ccc1N=Cc1ccccc1	107
C=CCC(=O)c1sc(NC)c(C#N)c1N	99
O=C(CSc1nc2ccc(NC(=O)c3ccccc3F)cc2s1)NC1CC1	100
O=C1N=c2ccccc2=C1c1[nH]c(=S)n(-c2ccccc2)c1O	101
COC(=O)CCn1cnc(-c2ccccc2)c1-c1ccccc1	100
O=C(Cc1ccsc1)OCC(=O)c1ccccc1	97
Cc1sc2nc[nH]c(=O)c2c1-c1ccccc1	97
COc1ccc(C(=O)NC(C)C(c2cccs2)N2CCN(C)CC2)cc1OC (stereo not drawn)	98
Clc1ccc(-c2cc3ccccn3c2)cc1	99
CCN(CC)c1cccc(C(=O)O)n1	102
O=C(Nc1ccccc1)OCc1cncs1	113
Cc1cc(Nc2ccc(F)cc2)nc(SCc2c(Cl)cccc2Cl)n1	96
Cc1ccc2nc(NCCC(=O)O)nc(-c3ccccc3)c2c1	100
Brc1ccccc1[C@@H]1Nc2ccccc2[C@@H]2C=CC[C@@H]21	100
O=Nc1c(-c2c(O)[nH]c3ccccc23)[nH]c2ccccc12	83*
Brc1ccc(-c2cnc(/C=C/C=C/N3CCOCC3)s2)cc1	96
O=C(O)c1cc(-c2cccc(O)c2)c2c(-c3ccccc3)[nH]nc2n1	109
O=C(c1ccccc1)c1cc2ccccc2oc1=O	100
OCC1CC2CCCC[N+]2(Cc2ccccc2)O1 (stereo not drawn)	96

An excerpt from the list above:
SMILES	Vaccinia pol inh
Cc1ccc(NC(=O)c2ccco2)cc1Cl	101
CC(=O)Nc1cc(C(C)C)c(C(C)C)cc1C(C)C	99

Next results follow:
SMILES	Vaccinia pol inh
O/N=C\c1ccccc1Oc1ccc(Cl)c(F)c1	92
COc1ccc(-c2noc(CC(=O)N3CCC(C)CC3)n2)cc1	88
O=C(c1ccc(S(=O)(=O)N2CCc3ccccc3C2)cc1)N1CCOCC1	91
O=C(CCN1C(=O)c2ccccc2S1(=O)=O)Nc1ccc2c3c(cccc13)CC2	97
Nc1nnc(CSc2cccc3cccnc23)o1	101
O=C(c1cc2ccccc2o1)N1CC=C(c2ccccc2)CC1	105
CNC(=O)CSc1c(-c2cccs2)[nH]c2ccccc12	100
C=C(C)Cn1c(C(C)NC(=O)COC)nc2ccccc21 (stereo not drawn)	102
CCOC(=O)N1CCC(NC(=O)c2snnc2C)CC1	92
Cc1cc(NC(=O)NC(=O)c2ccc(F)cc2)n[nH]1	99
CCc1cccc(CC)c1N(COC)C(=O)CSc1nc2ccccc2[nH]1	100
COc1cc(Cl)c(C(F)(F)F)cc1NC(=O)c1c(OC)cccc1OC	105
COc1ccc(C2C(C(N)=O)C2(C#N)C#N)cc1 (stereo not drawn)	100
O=C(O)C1=Nc2cccc3cccc(c23)N1	67
CC(C)N(Cc1ccccc1)S(=O)(=O)c1cccs1	80
NC(CCO)c1cccc(C(F)(F)F)c1 (stereo not drawn)	82
CCc1nnc2sc(NC(=O)c3ccco3)nn12	96
CCCCC(=O)Nc1noc2ccccc12	105
COc1ccccc1OCCC(=O)O	127
Clc1ccc(-c2csc3ncnc(Cl)c23)cc1	100
CC(OC(=O)c1cccnc1)C(=O)Nc1cc(Cl)cc(Cl)c1 (stereo not drawn)	104
COc1cccc(NC(=O)c2ccc(-c3cccc(Cl)c3C)o2)c1	100
CCCCc1ccc(NC(=O)CSc2nc(C3CCCCC3)c(C#N)c(=O)[nH]2)c(C)c1	102
Cc1c(CC(C)C)nc(C#N)c(N)c1-c1ccccc1	100
COC(=O)C(C)Sc1ncnc2c1c(-c1ccccc1)cn2-c1ccc(OC)cc1 (stereo not drawn)	94

By substructure, the entries above containing a COOH group
SMILES	Vaccinia pol inh
CCN1CCN(C(=O)Cc2c(C(=O)O)[nH]c3ccccc23)CC1	103
CC1=C(C)CC(C(=O)Nc2ccc(-n3cnnn3)c(C)c2)C(C(=O)O)C1 (stereo not drawn)	96
O=C(O)CSCc1cn2ccccc2n1	108
CC1(C)CC(=O)C=C(Nc2ccc(C(=O)O)cc2)C1	100
CC(Cn1c(C(C)C)nc2ccccc21)C(=O)O (stereo not drawn)	95
CCN(CC)c1cccc(C(=O)O)n1	102
Cc1ccc2nc(NCCC(=O)O)nc(-c3ccccc3)c2c1	100
O=C(O)c1cc(-c2cccc(O)c2)c2c(-c3ccccc3)[nH]nc2n1	109
O=C(O)C1=Nc2cccc3cccc(c23)N1	67
COc1ccccc1OCCC(=O)O	127

Next part:
SMILES	Vaccinia pol inh
OC(Cc1ccccc1)(c1ccccc1)C1CN2CCC1CC2 (stereo not drawn)	103
CCOc1ccc(NC(=O)NN2C(C)CCCC2C)cc1 (stereo not drawn)	96
CCOC(=O)Cn1c(-c2cccs2)cc2ccccc21	96
OCc1cn(Cn2cc(CO)c(-c3ccccc3)n2)nc1-c1ccccc1	98
CCOC(=O)Cn1c(=O)oc2cc(S(=O)(=O)N3c4ccccc4CC3C)ccc21 (stereo not drawn)	94
Cc1ccc(NC(=S)NN(C)C)cc1	103
O=C(O)c1cccc(-c2ccc(O)cc2)c1	88
Cc1ccc(C)c(NC(=O)C2CC(O)CN2C(=O)OC(C)(C)C)c1 (stereo not drawn)	100
Cc1ccccc1C1C(=O)c2ccccc2N(C)C1=O (stereo not drawn)	89
Cc1cc(OC(=O)c2cccs2)c2c3c(c(=O)oc2c1)CCC3	100
CCc1ccc(CN2CCN(C(=O)c3ccccc3)CC2)cc1	105
O=C(NC1c2ccccc2Oc2ccccc21)c1cccnc1	99
N#CC1=C(N)NC(SCc2ccccc2)=C(C#N)C12CCCCC2	99
Cn1c(CO)nc2ccccc21	104
Cc1c(-c2ccccc2)c(CN2CCN(C)CC2)n2ccccc12	100
NC(=O)c1ccc[n+]([C@@H]2O[C@H](COP(=O)([O-])OP(=O)(O)OC[C@H]3O[C@@H](n4cnc5c(N)ncnc54)[C@H](O)[C@@H]3O)[C@@H](O)[C@H]2O)c1	91
CCSC(SCC)=C(C#N)C(=O)Nc1ccccc1	101
Cc1ccc(C)c(NS(=O)(=O)c2ccccc2)c1	100
COc1ccc(CNC(=S)NN)cc1	101
Cc1ccc(C2=CSc3nnc(-c4ccccc4Br)n3N2)cc1	83
COc1ccc(N2C(=O)CC(SCC(=O)O)C2=O)cc1 (stereo not drawn)	100
Nc1cc(=O)n(-c2ccccc2)[nH]1	101
CCOC(=O)CC(=O)c1ccn(C)n1	98
C=CCN1C(=S)N[C@@H]2CS(=O)(=O)C[C@@H]21	100
COc1ccc(/C(O)=C/C(=O)C(=O)NC2C3CC4CC(C3)CC2C4)cc1 (stereo not drawn)	88
O=S(=O)(NC1CC2CCC1C2)c1cccs1 (stereo not drawn)	96
COc1cc(-c2ccc(=O)[nH]n2)ccc1OC(F)F	98
CN(CCc1ccccn1)C(=O)c1cccnc1Oc1ccc(Cl)cc1	94
CC1=C(Cc2ccc(OC(=O)c3ccccc3)cc2)C(=O)C(C(C)C)CC1 (stereo not drawn)	97
